# Screening results: PubChem, several laboratories
# RanGTP-Imp inh – inhibitors of RanGTP-importin-beta interaction, primary screen, biochemical, FRET, CFP-Ran, YFP-importin-beta, homogeneous; 300,000 compounds, 1.1% hits; cell-free CFP-Ran/YFP-importin-beta FRET ratio; inhibition, % (no concentration beside the values);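 active = most replicates above 15%; inconclusive = exactly half above 15%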;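 also: 0% = DMSO wells and 100% = Ran loaded with GDP instead of GTP; wells of about 40 µL received 100 nL stock; the first replicate is given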
# Ecoli rRNA inh – selective bacterial rRNA inhibition in E. coli; E. coli WT GFP vs humanized-ribosome RFP mutants, fluorescence, 24 h; stronger effect = lower value; DMSO median 0, no signal -100; GFP signal change (wild-type ribosome), % (test concentration not listed); 350,000 compounds, 1.6% hits;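 active = significant combined selectivity score with lowered wild-type GFP, culture density cut under 30%, mutant RFP and density less affected; inactive = any of these conditions unmet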; also: one replicate is shown; some compounds called inactive have numbers as strong as hits
# T cruzi repl – T. cruzi replication inhibition | T. cruzi beta-gal in NIH3T3, luminescence, 90 h | inhibition, % (concentration not given with the values) | 300,000 compounds, 1.4% hits | AID 1885;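 active = mean inhibition across valid replicates above about 55%, limit read from the data; inconclusive = mean below that limit but half or more replicates reach it; inactive = mean below it, under half of replicates reach it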;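 also: signal also drops with host cell toxicity which is not excluded here; 0% = plate median of DMSO wells and 100% = zero luminescence signal; higher percent means less beta-gal luminescence so fewer parasites; stock transfer was 50 nL into about 50 µL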
# Vif TR-FRET – inhibitors of Vif binding to APOBEC3G peptide, primary screen, biochemical, TR-FRET, GST-Vif 1-94, biotin-A3G peptide, dose response retest (AID 1117319); TR-FRET GST-Vif / biotin-A3G peptide binding; higher % means a stronger effect; test concentration not given here; strong numbers were not always called active; inhibition, %, or IC50 in µM where a hit was titrated; 260,000 compounds, 0.57% hits;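 active = above the screen mean plus three standard deviations and confirmed in dose response; inconclusive = results disagree or hit not tested in dose response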;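 also: Vif residues 1-94 fused to GST binding biotinylated APOBEC3G peptide 110-148; 0% = full assay without inhibitor and 100% = GST in place of GST-Vif; retest series ran down from 100 µM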
# AF4-AF9 inh – inhibitors of human MLL-AF4/AF9 interaction; AlphaScreen, biotin-AF4 peptide binding to FLAG-AF9; 350,000 compounds, 0.47% hits; inhibition, % at 10 µM; P42568;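 active = every replicate reaching a set inhibition limit, whatever the replicate mean, cut at about 25% in these data; inconclusive = mean inhibition reaches that limit but some replicates miss it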;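 also: 0% = plate neutral control median and 100% = total signal loss; the record names both 10 and 1 µM as test concentration; the first replicate is given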
# Target sequence (P42568 whole entry, looked up): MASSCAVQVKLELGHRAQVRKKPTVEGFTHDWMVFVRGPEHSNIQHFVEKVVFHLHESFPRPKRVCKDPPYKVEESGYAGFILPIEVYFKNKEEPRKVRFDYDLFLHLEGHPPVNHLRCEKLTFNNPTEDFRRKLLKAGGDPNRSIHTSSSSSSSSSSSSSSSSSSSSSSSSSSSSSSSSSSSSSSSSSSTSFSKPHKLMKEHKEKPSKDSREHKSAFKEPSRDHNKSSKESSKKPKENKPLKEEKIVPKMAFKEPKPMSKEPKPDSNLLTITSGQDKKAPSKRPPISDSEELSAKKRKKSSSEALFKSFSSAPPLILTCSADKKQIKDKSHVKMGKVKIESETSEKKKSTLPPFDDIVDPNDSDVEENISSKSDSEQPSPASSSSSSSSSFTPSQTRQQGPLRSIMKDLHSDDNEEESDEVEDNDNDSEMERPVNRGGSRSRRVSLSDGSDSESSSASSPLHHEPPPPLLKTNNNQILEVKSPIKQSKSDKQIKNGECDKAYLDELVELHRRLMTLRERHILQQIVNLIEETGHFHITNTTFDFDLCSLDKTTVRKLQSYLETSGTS
# Calb FLC – C. albicans growth modulation with fluconazole; C. albicans CaCi-2 (fluconazole-resistant clinical isolate) + fluconazole, Alamar Blue growth, 48 h; growth inhibition, % (concentration not given with the values); 300,000 compounds, 0.57% hits; AID 1979;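 active = most replicates above 75%; inconclusive = exactly half above 75%; inactive = most below 75%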;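 also: all wells also contain fluconazole at 8 µg/ml as a sub-toxic cotreatment; 0% = median of DMSO wells and 100% = median of geldanamycin control wells; wells of about 8 µL received 7.5 nL stock; the first replicate is given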
# Bfl-1 A1 inh – inhibitors of the anti-apoptotic protein A1, read as caspase activation | MEF A1-2A-BIM cells, Caspase-Glo 3/7 luminescence, 3 h; percent of clofoctol response, vehicle zero | caspase activation, % (test concentration not listed) | 330,000 compounds, 0.066% hits | AID 2462;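 active = over half of replicate activation scores above 10%, or exactly half above 10 with the replicate mean above 10; inconclusive = replicate mean below 10 yet half the replicates above 10; inactive = over half of replicates below 10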;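 also: wells of about 30 µL received 50 nL stock; many hits fall short of the cut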
# Beta apoptosis – blocks beta cell apoptosis. INS-1E cytokine-induced death, ATP luminescence, 48 h; percent of positive-control rescue, neutral wells zero. protection from apoptosis, % (test concentration not listed). 300,000 compounds, 0.8% hits. AID 435005;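 active = all replicates at 75% or more, or half of them and the mean; inconclusive = half reach 75% but not the mean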;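 also: 0% = cytokine-treated negative control wells and 100% = positive control rescue; higher means more ATP so stronger rescue from cytokine killing; wells of about 40 µL received 100 nL stock; the first replicate is given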
# Ecoli rRNA inh OD600 – recorded beside Ecoli rRNA inh, whose call it bears; OD600 change, %; measured here: OD600 growth;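 optical density of the mix in the first replicate; 0 = DMSO median and -100 = no signal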
# Ecoli rRNA inh RFP – recorded beside Ecoli rRNA inh, whose call it bears; RFP signal change, %; measured here: RFP humanized mutant strains;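 first replicate; 0 = DMSO median and -100 = no signal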
# Active calls of the source: *; ? = inconclusive; . = no result given; & = joins results of further samples.
SMILES,RanGTP-Imp inh,Ecoli rRNA inh,Ecoli rRNA inh OD600,Ecoli rRNA inh RFP,T cruzi repl,Vif TR-FRET,AF4-AF9 inh,Calb FLC,Bfl-1 A1 inh,Beta apoptosis
COc1cccc(NC(=O)CCSc2ccc3ccccc3n2)c1,-2.1,.,.,.,-2,.,.,-2,0.0,-2
C1CNCCOCCNCCN1,2.7,.,.,.,-4,?,.,-2,0.3,0
COc1ccc(CNC(=O)C(C#N)c2nc3ccccc3nc2N2CCCC2)cc1 (stereo unspecified),?,.,.,.,24,-6%&-4%,.,1,-1.1,-18
CCC1CCCCN1C(=O)CSc1nc2c(cnn2-c2ccc(C)cc2)c(=O)[nH]1 (stereo unspecified),4.7,3,5,-0.8,24,-26%,-2.5,-1,0.4,12
COc1ccc(-c2nc(CSCC(=O)NCc3ccc4c(c3)OCO4)c(C)o2)cc1OC,0.1,1,-10,-3.7,10,8%,-0.3,-2,0.0,-8
O=C(CN1C(=O)NC2(CCCc3ccccc32)C1=O)Nc1cc(F)ccc1F (stereo unspecified),1.3,-1,0,-0.4,-3,-2%,-0.5,-3,0.0,-3
O=C(COC(=O)c1cc(-c2cccs2)nn1-c1ccccc1)Nc1ccc(F)c([N+](=O)[O-])c1,2.3,3,0,1.4,-10,.,-2.1,3,0.1,1
COc1ccc(-n2nc(C(=O)NCC(=O)NCC3CCCO3)c3ccccc3c2=O)cc1 (stereo unspecified),-4.3,.,.,.,-12,3%&-1%,.,0,0.2,-5
Cc1cc(C2C(C#N)=C(N)OC3=C2C(=O)CC(C)(C)C3)c(C)s1 (stereo unspecified),-3.8,.,.,.,-3,-8%,.,18,0.9,-6
O=C(CSc1ccc(-c2ccc(-n3cccn3)cc2)nn1)Nc1ccccc1F,6.8,7,14,-0.3,-3,-18%,-0.6,-2,-0.4,.
O=C(COC(=O)c1cccc(S(=O)(=O)N2CCN(c3ccc(F)cc3)CC2)c1)NCC1CCCO1 (stereo unspecified),-3.9,32,29,3.3,1,3%,-0.5,5,0.2,-2
Cc1cc(C)cc(NC(=O)CCNS(=O)(=O)c2ccc3c(c2)oc(=O)n3C)c1,-0.2,.,.,.,-6,18%,.,10,-0.1,.
COC(=O)c1ccc(NS(=O)(=O)c2ccc3c(c2)oc(=O)n3C)cc1,3.7,4,0,0.1,-20,4%,-1.7,0,-0.2,-2
Nc1nonc1-n1nnc(C(=O)N/N=C/c2cccc(F)c2)c1-c1ccc2c(c1)OCO2,-0.4,-6,-5,1.6,-7,.,0.3,8,0.4,0
O=C(N/N=C/c1ccc(O)cc1O)c1ccc(NC(=O)C2CCCCC2)cc1,5.0,-51,-69,-14,4,.,5.2,-2,0.2,?
O/C=c1\ccc2cccc3nc(C(F)(F)F)nc1c23,3.6,13,13,8.9,-18,2.8µM*,1.8,2,-0.9,2
COc1ccc(CNC(=S)Nc2ccccc2F)cc1,4.7,-6,-9,-3.4,-9,.,-7.9,-47,0.3,.
Cc1ccc(NC(=O)CN2C(=O)S/C(=C\c3ccc(-c4cccc(C(=O)O)c4C)o3)C2=O)cc1,42*,.,.,.,11,?,.,16,-0.1,-4
COc1ccc(NC(=O)c2ccc(CN3CCc4ccccc4C3)cc2)cc1OC,-1.3,-6,-6,-5.1,10,.,3.9,-13,0.3,-2
COc1ccc(NC(=O)CN2C(=O)COc3ccc(S(=O)(=O)N4CCOCC4)cc32)cc1,-1.7,6,10,-0.2,3,.,0.3,27,-0.5,1

# A draw from above in order of count of non-hydrogen atoms, smallest number first:
SMILES,RanGTP-Imp inh,Ecoli rRNA inh,Ecoli rRNA inh OD600,Ecoli rRNA inh RFP,T cruzi repl,Vif TR-FRET,AF4-AF9 inh,Calb FLC,Bfl-1 A1 inh,Beta apoptosis
COC(=O)c1ccc(NS(=O)(=O)c2ccc3c(c2)oc(=O)n3C)cc1,3.7,4,0,0.1,-20,4%,-1.7,0,-0.2,-2
COc1ccc(NC(=O)CN2C(=O)COc3ccc(S(=O)(=O)N4CCOCC4)cc32)cc1,-1.7,6,10,-0.2,3,.,0.3,27,-0.5,1
Cc1ccc(NC(=O)CN2C(=O)S/C(=C\c3ccc(-c4cccc(C(=O)O)c4C)o3)C2=O)cc1,42*,.,.,.,11,?,.,16,-0.1,-4

# Other structures.
SMILES,RanGTP-Imp inh,Ecoli rRNA inh,Ecoli rRNA inh OD600,Ecoli rRNA inh RFP,T cruzi repl,Vif TR-FRET,AF4-AF9 inh,Calb FLC,Bfl-1 A1 inh,Beta apoptosis
COc1ccccc1C(=O)Nc1ccc(-c2nnn(CC(=O)NCc3ccco3)n2)cc1,1.7,15,6,-1.6,-13,-12%,-10,4,-0.7,1
Cc1cc(C)c(C(=O)CN2C(=O)C(=O)N(C3CCCC3)C2=O)cc1C,.,.,.,.,.,-5%,1.7,.,-0.2,2
CCOC(=O)C1CCCN(C(=O)c2ccc3ncsc3c2)C1 (stereo unspecified),.,4,3,4.8,.,1%,-3.4,.,-0.8,-3
NC(=O)CN1C(=O)NC2(CCOc3ccccc32)C1=O (stereo unspecified),7.7,6,-3,-3.4,-11,.,0.7,1,-0.5,-2
CC(C)CCNC(=O)COC(=O)/C=C/c1ccc2ccccc2n1,0.6,2,5,2.4,-28,0%,-3.9,44,0.1,-5
O=C(Nc1ccc(Br)cc1)C1CC(O)CN1C(=O)OCc1ccccc1 (stereo unspecified),-3.0,-5,-1,2.9,-1,.,-7.7,3,0.1,2
COc1ccc(CNC(=S)Nc2cccc(C)c2C)cc1,0.0,.,.,.,-12,32%,.,-17,1.4,3
O=C(NC1CCCC1)C(c1ccncc1)N(C(=O)Cc1cccs1)c1cccc(F)c1 (stereo unspecified),-0.8,9,8,-0.6,9,.,-2.2,8,-0.4,3
N#Cc1sc(NCc2ccccc2)nc1Cl,-1.2,.,.,.,-4,0%,-1.8,6,-1.2,-4
COc1ccccc1CN(C)C(=O)c1ccc(S(=O)(=O)Nc2c(C)n(C)n(-c3ccccc3)c2=O)cc1,.,-3,-5,-1.0,.,4%,0.2,.,2.1,-8
CC(=O)/C(=N\Nc1ccc(Cl)cc1Cl)Sc1nnc(-c2ccccc2)n1-c1ccccc1,4.5,.,.,.,2,.,.,-8,0.4,3
Cc1ccc(C)c(NC(=O)CS(=O)(=O)c2c[nH]c3ccccc23)c1,1.5,.,.,.,-3,-2%,.,15,0.1,0
S=C(c1cn(Cc2ccc(Br)cc2)c2ccccc12)N1CCOCC1,0.2,.,.,.,1,-2%,.,13,-0.4,-10
O=C1c2cccc3cc([N+](=O)[O-])cc(c23)C(=O)N1/N=C/c1ccc(O)cc1O,3.2,26,-6,20,31,.,1.6,18,-0.7,11
O=C(Oc1ccc(OC(=O)C2CCC2)cc1)C1CCC1,1.4,6,-2,5.4,-10,.,-2.9,37,0.6,-9
O=C(NC1CCCCC1)N1CCc2[nH]c3ccccc3c2C1,?,.,.,.,3,7%,-5.1,4,0.4,-5
Cc1ccccc1CNC(=O)C1CCC(=O)N(C2CC2)C1 (stereo unspecified),0.9,6,14,-1.2,-8,0%,0.7,6,0.4,0
Cc1cc(C)c(C)c(OCCOCCN2CCN(C)CC2)c1,1.1,.,.,.,44,-1%,.,-13,-0.4,-4
Nc1ccccc1Nc1cc(-c2ccccc2)nn1-c1ccccc1,-9.5,-1,12,2.2,55*,.,15,-3,-1.4,-2
COc1ccc(/C=N/N=C2/NC(=O)C(CC(=O)O)S2)cc1OCc1ccccc1Cl (stereo unspecified),0.0,.,.,.,-13,1%,.,2,1.0,-4
CN(C(=O)CSc1nnc(C2CC2)n1-c1ccccc1)C1CCS(=O)(=O)C1 (stereo unspecified),.,9,12,-1.4,.,.,-0.5,.,-0.1,0
CCc1cc2c(SCC(=O)NCC3CCCO3)ncnc2s1 (stereo unspecified),.,-5,-3,-2.0,.,.,-6.4,.,-1.7,-2
O=S(=O)(c1ccccc1)[C@@]1(c2ccccc2)C[C@@H]2ON=C(c3cccc(-c4ccccc4)c3)[C@@H]2C1,-0.6,8,11,4.7,-7,.,-2.2,6,2.0,2
CCC(=O)NC(=S)Nc1cccc(NC(=O)c2ccco2)c1,-0.6,8,12,0.6,1,.,-0.6,25,-0.4,-5
COc1cccc(CN2C(=O)CCC2(C)C(=O)NC2CCCCC2)c1 (stereo unspecified),8.6,2,7,0.5,-11,-2%,1.3,-3,0.5,.
CCn1c(=O)c2sccc2n2c(CCCC(=O)NCCc3ccc(S(N)(=O)=O)cc3)nnc12,6.9,4,10,3.1,-6,.,0.7,-40,0.3,-5
CCOC(=O)c1ccccc1NC(=O)CSc1ccc(-c2ccccn2)nn1,4.6,10,24,0.9,24,2%,1.2,15,1.9,-4
COc1ccc(C(=O)Nc2ccccc2C(=O)N/N=C/c2ccccn2)cc1OC,3.7,-20,-11,11,18,11%,2.1,-2,-4.7,95*
O=C(NCCCN1CCOCC1)c1cc(-c2ccc(F)cc2)no1,1.0,19,17,2.8,-16,2%,-0.2,1,-0.5,17
Nc1ccn(CC(=O)NCc2ccccc2)c(=O)n1,.,-1,-9,11,.,.,0.6,.,-0.1,-10
CCOc1cc(NC(=O)c2cccs2)c(OCC)cc1NC(=O)CCC(=O)NCC1CCCO1 (stereo unspecified),-0.3,3,-3,4.8,28,.,0.4,-6,0.5,-3
O=C(Nc1ccc(F)cc1F)N1CCN(c2ncccn2)CC1,-2.6,3,4,-2.5,2,-7%,-6.3,-17,-0.8,3
CCOc1ccc(S(=O)(=O)N2CCCCC2)cc1NC(=O)C1=COCCO1,-1.2,-7,-11,0.2,3,2%,-20,14,-0.4,-5
Cc1ccc(CNC(=O)C(=O)NCCC2CCCCN2S(=O)(=O)c2ccccc2)cc1 (stereo unspecified),9.9,4,9,0.1,16,-3%,0.3,1,1.7,5
Cn1cc(CN2CCC(n3nccc3NC(=O)C3CCCC3)CC2)cn1,?,15,12,-1.5,15,.,-1.4,-1,1.4,-5
CCOc1ccc(N(CC(=O)Nc2nccs2)S(=O)(=O)c2c(C)noc2C)cc1,-1.4,1,5,4.0,-43,1%,-0.1,3,0.1,3
CCOc1ccccc1NC(=O)C1CCC(CNc2c(N3CCOCC3)c(=O)c2=O)CC1 (stereo unspecified),0.3,10,12,2.3,12,-3%,11,1,0.1,-3
O=C(Nc1ccc2c(c1)CCC2)Nc1ccc(F)cc1F,-0.3,25,19,-1.1,-2,-2%,-0.3,1,-2.5,-6
COc1ccc(C(=O)OCC(=O)NCCCc2ccccc2)cc1OC,4.2,0,0,3.0,-2,3%,-2.6,5,-0.4,-3
Cc1noc(NC(=O)c2ccc(F)cc2)c1C#N,1.3,.,.,.,0,23%,.,-4,-0.4,-7
CCN(CCCNC(=O)COc1cc(=O)n(CC)c2ccccc12)Cc1ccccc1,?,.,.,.,15,0%,.,-2,-0.3,-11

# This is a subset, so the mix of outcomes need not match the whole.
